Screening data (PubChem)
Six1-Eya2 blk – inhibitors of human Six1/Eya2 interaction | Q15475+O00167 | AlphaScreen GST-Six1/His-Eya2 binding, biochemical; hits give low values; control for the full effect not named in the record | activity change, % (test concentration not listed) | 360,000 compounds, 0.56% hits; in the data active = activity change below about -65%; inconclusive = about -30% to -65%; inactive = above about -30%; note: % is set by controls: 0 for no effect and ±100 for the full control effect
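Homogeneous AlphaScreen proximity assay pairing GST-Six1 with His-tagged Eya2 (added as 5X mix: 250 nM and 500 nM) in 50 mM Tris pH 8.0, 300 mM NaCl, 1 mM TCEP. Glutathione donor and nickel acceptor beads; 1 h, 37 °C, dark.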
CtBP-E1A inh – inhibitors of CtBP/E1A interaction. AlphaScreen GST-E1A/His-CtBP binding, 1536-well; hits give low values; control for the full effect not named in the record. activity change, % (no concentration beside the values). 340,000 compounds, 0.49% hits; in the data active means activity change below about -65%; inconclusive means about -30% to -65%; inactive means above about -30%; note: % is set by controls: 0 for no effect and ±100 for the full control effect
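Protein mix (5X: 125 nM each GST-E1A, His-CtBP) was incubated with pinned compound 2 h at 37 deg C in dark, in 50 mM Tris pH 8.0 buffer with 300 mM NaCl. Glutathione donor and nickel acceptor beads followed; AlphaScreen signal read after 1 h.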
TRPML1 agonist – agonists of human TRPML1 channel. 410,000 compounds, 0.12% hits. AID 624414. activation, % (concentration not given with the values). TRPML1-expressing cells, Ca2+ dye fluorescence, FDSS; host cell line not named in the record; reference of the full effect not given here. Q9GZU1; in the data active = activation above about 50%; inconclusive = about 30% to 50%; inactive = below about 30%; note: 0% is about no effect; the text of the record puts the active cut at 80%
Target sequence (Q9GZU1 whole entry, looked up): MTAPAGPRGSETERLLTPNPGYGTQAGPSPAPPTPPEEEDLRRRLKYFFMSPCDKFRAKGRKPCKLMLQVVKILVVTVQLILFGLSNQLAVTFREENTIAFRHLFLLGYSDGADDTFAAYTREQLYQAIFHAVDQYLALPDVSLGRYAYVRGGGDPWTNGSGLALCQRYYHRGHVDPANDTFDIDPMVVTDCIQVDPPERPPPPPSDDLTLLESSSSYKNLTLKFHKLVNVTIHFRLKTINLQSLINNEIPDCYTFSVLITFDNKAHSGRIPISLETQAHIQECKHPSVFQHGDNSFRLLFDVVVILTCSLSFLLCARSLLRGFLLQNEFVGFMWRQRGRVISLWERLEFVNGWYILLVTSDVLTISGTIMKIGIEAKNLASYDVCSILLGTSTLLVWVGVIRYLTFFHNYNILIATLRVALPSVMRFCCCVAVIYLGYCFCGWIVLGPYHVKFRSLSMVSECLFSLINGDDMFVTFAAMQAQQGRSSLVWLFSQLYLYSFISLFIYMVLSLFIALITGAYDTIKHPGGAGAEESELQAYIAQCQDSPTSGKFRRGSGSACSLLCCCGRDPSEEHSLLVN
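Kinetic FDSS Ca2+ read in Tet-induced TRPML1-DL cells (ABD Ca8 dye plus quencher, 45-90 min RT loading): baseline, then compound, then 110 s agonist window; EC80 agonist 54-4 at 4uM final added afterwards for a 110 s antagonist window.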
D2 ag – agonists of human D2 dopamine receptor (beta-arrestin); P14416; DiscoveRx PathHunter D2 beta-arrestin, luminescence, 90 min; 100% = 57 uM dopamine signal; activation, % (no concentration beside the values); 360,000 compounds, 0.084% hits; in the data active = activation above about 40%; inconclusive = about 15% to 40%; inactive = below about 15%; note: compound concentration not given in the record; the text of the record calls up to 30% inactive
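DiscoveRx PathHunter D2 beta-arrestin cells (2,100/well) attached overnight, then compound-stimulated 90 min at 37 C in HBSS/10 mM HEPES/0.1% Tween-20 buffer; beta-galactosidase complementation read by luminescence after 1 h at ambient temperature. Dopamine 57 uM final (EC100) as control.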
TRPML1 inh – blocks the human TRPML1 channel. Q9GZU1. TRPML1-inducible cells, Ca2+ dye fluorescence, FDSS; hits give low values; inhibition of EC80 agonist-evoked calcium signal. activity change, negative = inhibition, % (test concentration not listed). 390,000 compounds, 0.02% hits. AID 624415; in the data active means activity change below about -50%; inconclusive means about -30% to -50%; inactive means above about -30%;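 note: stimulus is agonist 54-4 at its EC80 concentration; % is set by controls: 0 for no effect and ±100 for the full control effect; compound concentration not given in the record; the text of the record puts the active cut at -80%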
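Tet-induced TRPML1-DL cells loaded with Ca8 no-wash calcium dye were read kinetically on FDSS. Compound addition was followed by EC80 agonist 54-4 (4 uM final); inhibition was read over 110 s.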
PINK1 expr mod – changes PINK1 expression. Potency, µM (titrated, usually from 76.6 µM), inactives show at the highest dose activation (PINK1 increase), hits mostly activators. PINK1 immunofluorescence, high-content cytometry, 24 h. AID 624263. 410,000 compounds, 0.2% hits; active = well fitted activation curve with a large enough effect; inconclusive = small, poorly fitted or top-dose-only effect; inactive = flat fitted curve, though single readings scatter; cell line not stated here;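 note: potency is the fitted concentration of half-maximal effect; % of control where 0% means no effect; nearly all actives have a fitted effect of over 65% in size; a mitochondrial uncoupler was the plate control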
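A stable cell line was treated with compounds at 5 concentrations for 24 hours, with CCCP as control. PINK1 levels and mitochondrial localization were measured by immunofluorescence with mitochondrial, cell and nuclear markers after fixation, read by laser-scanning cytometry.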
Starred values were filed as active, the others as inactive; ? = inconclusive; . = no result given; [ ] = another dose, or the depositor's remark.

nr	structure	Six1-Eya2 blk	CtBP-E1A inh	TRPML1 agonist	D2 ag	TRPML1 inh	PINK1 expr mod
1	COc1ccc(-n2nc([N+](=O)[O-])c(=NCc3ccc4c(c3)OCO4)n2O)cc1	-23	1	-0.2	?	-5	0.6%
2	CC(C)(C)c1ccc(S(=O)(=O)N2CCC(Oc3ccc(-n4cnnn4)cc3)CC2)cc1	.	.	1.9	.	13	-0.6%
3	COc1cc(OC)cc(C(=O)NC(=S)NNC(=O)[C@H]2C[C@@H]2c2ccccc2)c1	-5	?	19	-7.7	2	-0.5%
4	Cn1nnnc1SCc1ccc(C(=O)Nc2nccs2)cc1	-70*	-80*	-0.2	0.9	1	27%[38.3 µM]
5	Cc1ccc(OCCN2CCN(C(=O)CCC(=O)Nc3nnc(CC(C)C)s3)CC2)cc1	3	5	1.4	-0.3	11	-0.1%
6	COc1cc2[nH]c(=O)n(CCCC(=O)NCc3ccccc3)c(=O)c2cc1OC	.	.	-0.1	.	-8	-0.9%
7	CCc1ccc(-n2c(=O)c3sc4ccccc4c3n(CC(=O)N3CCCC3)c2=O)cc1	.	.	-0.4	.	-20	2.1%
8	CCC(C(=O)Nc1ccncc1)c1ccccc1 (stereo unspecified)	4	0	0.4	-3.6	-22	3.3%
9	COc1ccc(-c2cc(C(=O)NCCCN3CCCC3=O)c3ccccc3n2)cc1OC	3	-14	0.0	-2.5	-6	0.2%
10	CCOC(=O)c1cc(-c2ccccc2)sc1NC(=O)C(C)OC(=O)c1cccnc1Cl (stereo unspecified)	-5	-6	-0.4	-0.7	5	4.9%
11	CCOc1cc(NCc2ccccc2)c2ncn(C(C)C)c2c1	?	?	-0.2	7.5	32	0.4%
12	CN1CCN(C(=O)c2ccc(-c3cc4nc(NCc5cccnc5)n(C)c(=O)c4s3)cc2)CC1	1	-16	-0.6	-6.6	.	0.0%
13	CC(C)Sc1nc2c(c(=O)n(C)c(=O)n2C)n1C	1	8	-0.3	0.4	5	-5.6%[38.3 µM]
14	O=C(COC(=O)c1ccc([N+](=O)[O-])o1)Nc1cccc(S(=O)(=O)N2CCOCC2)c1	-7	6	-0.7	0.3	-7	2.0%
15	CCCCOc1ccc(CC2CCC(=O)NC2=O)cc1 (stereo unspecified)	8	-11	-0.4	-5.1	-17	0.7%
16	Cc1cc(C)c(S(=O)(=O)c2c(C)cccc2C)c(Cl)n1	-1	3	0.0	-2.1	33	6.8%[38.3 µM]
17	CC(C)c1ccc(C2C3=C(COC3=O)Nc3cc4c(cc32)OCO4)cc1 (stereo unspecified)	2	1	-0.9	-0.9	10	1.1%
18	O=C(COc1ccc(/C=N/NS(=O)(=O)c2ccccc2)cc1)Nc1ccccc1	-12	-1	-0.7	0.7	5	-0.8%
19	COc1cccc(OCc2cc(C(=O)NCc3ccccn3)no2)c1	-5	0	-0.6	2.8	5	0.3%
20	Cc1onc(-c2ccccc2Cl)c1C(=O)O/N=C(\N)c1ccc([N+](=O)[O-])o1	-13	.	-0.6	7.9	-1	0.0%
21	COCCn1c(=O)sc2ccccc2c1=O	3	3	0.5	1.9	-12	-0.1%
22	Cc1nnc(C)n1/N=C/c1cc(Br)ccc1O	-1	2	-0.9	-0.8	-22	4.9%
23	COc1ccc(C2NC(=O)CS2)cc1 (stereo unspecified)	15	0	13	-4.2	-6	-0.6%
24	CC(NC1CCCCC1)C(=O)NN=C(c1ccccc1)c1ccccc1 (stereo unspecified)	3	10	-0.9	-1.0	-11	0.6%
25	Cc1cc(NC(=O)c2cccc(Br)c2)no1	7	5	1.3	-0.9	11	6.3%
26	Cc1ccc(S(=O)(=O)/C(C#N)=C/c2ccccc2OCc2ccccc2)cc1	6	8	0.4	0.7	11	8.0%
27	C=CCOC(=O)C1=C(C)N(C)C(=O)NC1c1cc2c(cc1Br)OCO2 (stereo unspecified)	5	-1	0.4	-3.5	24	-2.4%
28	Cc1ccc(N2C(=O)CN(Cc3cccs3)C2=S)cc1C	12	7	0.1	-5.5	12	3.0%
29	O=C(CN(Cc1ccc(F)cc1)C(=O)CNS(=O)(=O)c1ccc(Cl)cc1)NCC1CCCO1 (stereo unspecified)	7	7	0.5	-1.6	24	-0.3%
30	CCCc1cc(=O)oc2c(C)c(OC(C)C(=O)NCCN3CCOCC3)ccc12 (stereo unspecified)	1	0	-0.1	-0.8	12	-0.9%
31	CCc1nc2ccc(C(=O)NCCC(C)C)cn2c1N(C)Cc1ccc(OC)cc1	5	2	1.2	3.7	52	0.8%
32	CN1CCN(c2nc(Nc3cccc(C(F)(F)F)c3)nc(N3CCOCC3)n2)CC1	-26	-21	0.6	-4.8	11	35%[38.3 µM]
33	CCN(C(=O)c1ccc(S(=O)(=O)N2CCC(C)CC2)cc1)C1CCS(=O)(=O)C1 (stereo unspecified)	5	8	0.6	-4.3	-1	0.6%
34	CN(C)c1ccc(-c2ccnc3c2CC(C)(C(=O)NCc2ccncc2)O3)cc1 (stereo unspecified)	-2	-10	-1.1	6.7	.	0.3%
35	O=C(CCc1ccc(S(=O)(=O)NCc2ccccc2)cc1)N1CCN(Cc2ccc3c(c2)OCO3)CC1	-5	-4	0.6	-0.8	-5	3.0%[38.3 µM]
36	CCCCCOc1c(Cl)cc(C(=O)N(Cc2ccc(C)o2)C2CCS(=O)(=O)C2)cc1Cl (stereo unspecified)	.	.	0.7	.	27	3.5%
37	CCc1ccc(NC(=O)Nc2cn(C)c(=O)c3ccccc23)cc1	.	.	1.6	.	-17	-0.7%
38	Cc1noc(-c2ccc(-c3noc(-c4cccc(Cl)c4)n3)cc2)n1	.	.	-0.2	.	15	2.8%
39	CCc1ccc(NC(=O)C(C)OC(=O)CC(NC(C)=O)c2ccccc2)cc1 (stereo unspecified)	7	6	0.3	0.6	5	2.0%
40	COC(=O)c1ccc(NC(=O)C(C)N2C(=O)c3ccccc3C2=O)cc1 (stereo unspecified)	-1	11	-0.6	-0.9	26	-3.9%
41	Cc1ccc(NC(=O)c2ccc(OCc3c(C)noc3C)cc2)c(C)c1	0	11	0.0	4.9	12	4.3%
42	CC(=O)c1ccc(-n2c(-c3cc(-c4ccco4)[nH]n3)n[nH]c2=S)cc1	-14	-7	0.0	-4.0	12	-0.4%
43	CCN1CCc2c(sc(NC(=O)c3ccc(S(=O)(=O)N4CCOCC4)cc3)c2C(N)=O)C1	-2	-3	0.3	-4.4	4	14%
44	O=C(O)c1cc(S(=O)(=O)N2CCOCC2)ccc1N1CCCCC1	5	7	0.6	-0.3	-2	-0.3%
45	O=C(NNC(=O)c1cccs1)c1ccc2ccccc2c1	-15	0	-1.1	-0.5	-10	0.5%
46	CN(C)S(=O)(=O)n1cc(/C=C(\NC(=O)c2ccccc2)C(=O)N2CCOCC2)c2ccccc21	0	1	0.4	3.4	0	3.6%
47	CCOC(=O)c1ccc(OS(=O)(=O)c2ccccc2)c(OC)c1	10	8	0.0	-0.3	9	4.3%
48	O=C(CNC(=O)Cn1cnc2sc3c(c2c1=O)CCCC3)NCc1ccccn1	-6	-7	0.5	-0.1	-6	.
49	COCCNC(=O)C1(C)CCCN(C(=O)c2ccc(C(=O)OC)cc2)C1 (stereo unspecified)	7	8	0.2	-4.0	1	0.1%
50	Cc1ccc2nc(-c3ccc(NC(=O)COc4c(C)ccc(C)c4C)cc3)sc2c1	.	.	0.0	.	10	-0.5%
51	O=C(CN1C(=O)C2CCCCC2C1=O)OCC(=O)c1ccc(Cl)s1 (stereo unspecified)	2	6	-0.3	-8.0	19	0.1%
52	COc1ccc(Cn2c(C(=O)O)c(CNCCc3cc(OC)ccc3OC)c3ccc(C)cc32)cc1	.	.	2.2	.	-21	0.1%
53	COc1cccc2cc(C(C)N(CCCN3CCOCC3)C(=S)Nc3cccc(C)c3)oc12 (stereo unspecified)	-9	?	0.9	-6.0	12	2.0%
54	CCSc1ccc(C(=O)Nc2ccc(-c3nc4ccc(C)cc4s3)cc2)cc1	.	.	1.4	.	6	-4.1%
55	COCCNC(=O)/C(C#N)=C/c1c(N2CCCCCC2)nc2c(C)cccn2c1=O	-6	4	-1.7	0.8	-11	-1.2%
56	CC1CCN(CC(O)COc2ccc(F)cc2)CC1 (stereo unspecified)	-2	-1	-0.6	-1.6	-11	1.8%
57	COc1ccc(C(=O)c2no[n+]([O-])c2C(=O)c2ccc(OC)cc2)cc1	5	2	0.2	1.7	-1	4.1%
58	Cc1cc(/C=C2\SC(=S)N(C)C2=O)c(C)n1-c1ccccc1O	-9	-15	20	0.1	-18	?
59	Cc1ccc(Cn2c(C(=O)O)cc3sccc32)cc1	12	14	0.4	-1.4	5	1.2%
60	COc1ccc(OC)c(-c2csc(N(C)C(=O)Cc3ccccc3)n2)c1	-4	14	1.7	1.0	20	0.6%
61	CCNc1nc(SCC(=O)OC)nc(N(C)C)n1	9	-11	2.3	5.7	-12	2.0%
62	CN(C(=O)C1CCOC1)c1nnc(-c2cccnc2)s1 (stereo unspecified)	-5	-3	-0.3	-1.3	-26	-1.7%

Reformatted: 3 of the compounds above.
Values run as follows: Six1-Eya2 blk, CtBP-E1A inh, TRPML1 agonist, D2 ag, TRPML1 inh, PINK1 expr mod
7	CCc1ccc(-n2c(=O)c3sc4ccccc4c3n(CC(=O)N3CCCC3)c2=O)cc1
    ., ., -0.4, ., -20, 2.1%
8	CCC(C(=O)Nc1ccncc1)c1ccccc1 (stereo unspecified)
    4, 0, 0.4, -3.6, -22, 3.3%
9	COc1ccc(-c2cc(C(=O)NCCCN3CCCC3=O)c3ccccc3n2)cc1OC
    3, -14, 0.0, -2.5, -6, 0.2%

Compounds as they come. About 1% of those tested had a hit in this group.
